MEX-5 binding: C. elegans MEX-5 TCR-2 RNA binding activity; Q9XUB2; MEX-5/FITC-TCR2 RNA binding, fluorescence polarization; hits give low values; activity score (negative = inhibition of binding), % at 10 µM; 300,000 tested, 0.38% active; AID 1832;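 active means inhibition past about -25% in most replicates, and total fluorescence under double the plate's negative control median, limit read from the data; inconclusive means replicates evenly split on the limit, or fluorescence at least double controls; inactive means too little inhibition in most replicates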;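 further: 0% = DMSO and -100% = 5 µM competing unlabeled TCR2 RNA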
Target sequence (Q9XUB2 whole entry, looked up): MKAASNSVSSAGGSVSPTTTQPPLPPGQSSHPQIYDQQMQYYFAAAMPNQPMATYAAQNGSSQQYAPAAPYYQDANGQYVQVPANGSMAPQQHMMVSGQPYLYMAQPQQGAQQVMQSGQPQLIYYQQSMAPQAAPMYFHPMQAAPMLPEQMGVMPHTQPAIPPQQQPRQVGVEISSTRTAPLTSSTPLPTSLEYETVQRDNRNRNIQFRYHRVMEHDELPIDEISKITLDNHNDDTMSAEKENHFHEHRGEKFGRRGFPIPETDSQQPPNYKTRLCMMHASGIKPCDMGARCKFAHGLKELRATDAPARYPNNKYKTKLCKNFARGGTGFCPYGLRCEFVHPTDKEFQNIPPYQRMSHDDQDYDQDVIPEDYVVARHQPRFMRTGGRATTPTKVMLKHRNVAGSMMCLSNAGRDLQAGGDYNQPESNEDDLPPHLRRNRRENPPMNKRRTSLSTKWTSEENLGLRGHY
GLD-1 TGE inh: GLD-1-TGE RNA interaction inhibition (C. elegans); Q17339; purified GLD-1 + fluorescein TGE RNA, fluorescence polarization; inhibition, % at 5.96 µM; 320,000 tested, 0.44% active;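 active means percent inhibition above a per-plate cutoff, the plate mean of test compounds plus 3 SD, cut at about 30% in these data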;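 further: 0% = DMSO wells with GLD-1 and probe and 100% = wells lacking GLD-1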
Target sequence (Q17339 whole entry, looked up): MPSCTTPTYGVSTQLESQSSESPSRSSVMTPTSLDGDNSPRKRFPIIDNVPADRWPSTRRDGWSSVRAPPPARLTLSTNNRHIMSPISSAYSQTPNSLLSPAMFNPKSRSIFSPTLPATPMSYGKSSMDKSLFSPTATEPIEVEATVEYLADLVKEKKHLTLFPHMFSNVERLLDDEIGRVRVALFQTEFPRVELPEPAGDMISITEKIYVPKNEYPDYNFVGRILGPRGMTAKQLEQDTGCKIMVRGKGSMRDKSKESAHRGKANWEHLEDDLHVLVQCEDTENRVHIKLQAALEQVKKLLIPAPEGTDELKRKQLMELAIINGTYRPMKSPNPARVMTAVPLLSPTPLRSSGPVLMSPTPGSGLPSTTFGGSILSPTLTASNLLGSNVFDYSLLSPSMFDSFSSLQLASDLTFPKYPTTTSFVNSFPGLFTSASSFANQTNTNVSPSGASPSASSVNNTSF
CIT2 TOR yeast: modulators of TOR pathway CIT2-GFP in S. cerevisiae. GFP response vs DMSO, % at 10 µM. 320,000 tested, 0.065% active. S. cerevisiae CIT2-GFP strain, flow cytometry, 3 h; 100 means same as DMSO wells;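 active means GFP response relative to DMSO above a set limit, near the screen mean plus 3 SD, cut at about 150% in these data; inconclusive means Fewer than 70 cells measured for a yeast strain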;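 further: ratio of well median GFP fluorescence to mean of DMSO wells on the plate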
GRK2 aptamer HTS: inhibitors of human GRK2 displacing RNA aptamer | bead flow cytometry, FAM-aptamer displacement from GRK2 | AID 488847 | 330,000 tested, 0.59% active | inhibition of aptamer binding, % at 10 µM;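 active means inhibition of aptamer binding above 40%, roughly 3 SD of noise, on plates passing a quality check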;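 further: median bead fluorescence of bound FAM aptamer so fluorescent compounds give negative values; no value below 0 was filed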
VLA-4 inh: inhibition in a human VLA-4 binding assay | VLA-4 expressing cells, ligand binding flow cytometry | inhibition, % (about 7 µM as worked out from the volumes in the protocol) | 330,000 tested, 0.2% active | AID 2557; in the data active means inhibition above about 50%
Yeast superoxide: caloric restriction mimetics inhibiting age-related superoxide in yeast; S. cerevisiae aged cells, superoxide DHE fluorescence; hits give low values; superoxide response (% of plate mean), % at 10 µM; 330,000 tested, 0.18% active; AID 2690;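 active means superoxide response under a set limit, about three screen SD below normal, cut at about 65% in these data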;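 further: yeast aged for seven days with compound at 30 °C before DHE staining; 100% = average MFI of all compound-treated wells on the plate with controls excluded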
AGP1-GFP MLPCN: yeast TOR pathway AGP1-GFP modulation; S. cerevisiae AGP1-GFP multiplex flow cytometry, 3 h; GFP as percent of DMSO wells; GFP response vs DMSO, % at 10 µM; 320,000 tested, 0.02% active;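 active means GFP response relative to DMSO above a set limit, near screen average plus 3 SD, cut at about 150% in these data; inconclusive means fewer than 70 cells counted for the yeast strain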;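 further: median GFP channel fluorescence of the gated AGP1 strain per well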
* hit, by the source's call; i = inactive; ? = inconclusive; . = no result given; & = joins results of further samples; [ ] = remark or other dose. Some of the compounds tested; rates above refer to the full screens.

SMILES	MEX-5 binding	GLD-1 TGE inh	CIT2 TOR yeast	GRK2 aptamer HTS	VLA-4 inh	Yeast superoxide	AGP1-GFP MLPCN
O=C(c1cc(-c2ccco2)nc2ccccc12)N1CCCC(C(F)(F)F)C1 (stereo not given)	.	7	102	1	5	91	103
CN(C)c1oc(/C=C/c2ccccc2)nc1C#N	-2.9	-1	82	0	18	111	96
CCOC(=O)C(C(C)C)C(N)Cc1ccc(F)cc1 (stereo not given)	-0.9	3	107	3	14	122	96
NS(=O)(=O)c1cc2c(cc1Cl)NC(C1C[C@H]3C=C[C@@H]1C3)NS2(=O)=O (stereo not given in full)	-1.9	5	91	1	17	102	96
O=C(NCc1ccccc1)c1nc2ccccc2s1	1.1	0	84	1	-7	108	82
COc1cc2c(cc1OC)-c1cc(N3CCCc4ccccc43)nc(=O)n1CC2	-0.3	-7	.	5	12	125	92
CCCN1CCN(C(=O)c2nn(-c3ccc(OC)cc3)c(=O)c3c2c2ccccc2n3C)CC1	0.4	0	97	1	-16	110	101
Cc1ccc(-n2nc(C(=O)NCc3ccco3)c3c4ccccc4n(C)c3c2=O)cc1	-3.9	-7	88	0	4	99	101
COc1ccc(S(=O)(=O)N(CCN2CCOCC2)Cc2cc(OC)ccc2OC)cc1	0.4	8	106	0	6	100	110
CCCOc1ccc(OCCOCCN2CCc3ccccc3C2)cc1	-0.9	0	111	4	14	106	104
Cc1ccc(Nc2nc(N)nc(CSc3nnnn3-c3ccccc3)n2)cc1	1.9	8	108	0	10	87	111
Cc1ncc([N+](=O)[O-])n1CC(C)O (stereo not given)	-0.8	-2	123	7	4	93	90
CCC(=O)N(CCC(c1ccc(C)cc1)c1ccco1)Cc1ccco1 (stereo not given)	3.1	-10	102	0	23	103	111
Cc1c(C=O)c2ccccn2c1C(=O)c1ccccc1	0.1	10	67	4	8	89	82
COc1ccc(NC(=O)CC2C(=O)N(C)C(=S)N2Cc2ccco2)cc1 (stereo not given)	1.3	-3	106	0	2	93	100
Cc1cccc(Nc2nc(-c3ccccc3)c(C(=O)Nc3cccnc3)s2)c1	-0.2	-1	94	3	7	99	91
COc1ccccc1NC(=O)COc1ccc(/C=N/NC(=O)CSCc2ccc(Cl)cc2)cc1	0.9	3	102	0	-4	99	101
CC(C)CCN1CCN(C/C=C/c2ccco2)CC1CCO (stereo not given)	-0.9	8	102	0	2	104	104
Cc1ccc(CNCc2cc3c(C(C)(C)C)nn(-c4ccccc4)c3[nH]c2=O)cc1	0.0	0	102	2	-13	90	104
O=C1C(=O)c2ccccc2C(O)=C1C1CCC(c2ccc(Cl)cc2)CC1 (stereo not given)	.	7	91	0	17	109	98

The final 3 compounds of the part before open the next one:
SMILES	MEX-5 binding	GLD-1 TGE inh	CIT2 TOR yeast	GRK2 aptamer HTS	VLA-4 inh	Yeast superoxide	AGP1-GFP MLPCN
CC(C)CCN1CCN(C/C=C/c2ccco2)CC1CCO (stereo not given)	-0.9	8	102	0	2	104	104
Cc1ccc(CNCc2cc3c(C(C)(C)C)nn(-c4ccccc4)c3[nH]c2=O)cc1	0.0	0	102	2	-13	90	104
O=C1C(=O)c2ccccc2C(O)=C1C1CCC(c2ccc(Cl)cc2)CC1 (stereo not given)	.	7	91	0	17	109	98
CC(=O)Nc1ccc(Nc2nc(C)c([N+](=O)[O-])c(Nc3ccc(NC(C)=O)cc3)n2)cc1	.	-2	95	0	12	114	100
O=C(CN1CCN(Cc2ccc(Cl)cc2)CC1)N/N=C/C=C/c1ccccc1[N+](=O)[O-]	0.4	8	99	0	18	103	101
O=C(Nc1ccc(F)cc1F)c1noc2c1CCC2	0.2	4	119	59*	-8	105	106
N=C1S/C(=C\c2ccc(O)cc2)C(=O)N1c1ccc(F)cc1	-2.1	-14	88	0	13	88	111
O=c1[nH]c(=O)c2cn[nH]c2[nH]1	.	2	92	0	45	101	100
CC1(C)O[C@@H]2C[C@H]3[C@@H]4CCC5=CC(=O)C=C[C@]5(C)[C@@]4(F)[C@@H](O)C[C@]3(C)[C@]2(C(=O)CO)O1	.	-3	95	1	15	97	93
COc1ccc(/C=N/Nc2cc(C)nc(-n3nc(C)cc3C)n2)cc1	18	2	84	0	17	101	90
O=C1Nc2cc3c(cc2C1=O)sc1ccccc13	-4.0	1	80	3	27	105	97
CCC(C)C(NC(=O)c1ccccc1NC(=O)c1ccc(OC)cc1)C(=O)NCc1ccco1 (stereo not given)	-1.2	-10	86[may fluoresce red]	0	4	98	?
Cc1ccc(-c2cc(C(F)F)n3ncc(C(=O)NCc4ccco4)c3n2)cc1	.	0	77	0	12	115	76

By substructure: those above with an NH in an aromatic ring (2)
SMILES	MEX-5 binding	GLD-1 TGE inh	CIT2 TOR yeast	GRK2 aptamer HTS	VLA-4 inh	Yeast superoxide	AGP1-GFP MLPCN
Cc1ccc(CNCc2cc3c(C(C)(C)C)nn(-c4ccccc4)c3[nH]c2=O)cc1	0.0	0	102	2	-13	90	104
O=c1[nH]c(=O)c2cn[nH]c2[nH]1	.	2	92	0	45	101	100

Next section:
SMILES	MEX-5 binding	GLD-1 TGE inh	CIT2 TOR yeast	GRK2 aptamer HTS	VLA-4 inh	Yeast superoxide	AGP1-GFP MLPCN
COC(=O)c1c(C)cc(O)c(C)c1O	0.3	9	99	0	30	102	103
N#C/C(=C/c1ccc(-c2ccccc2)o1)c1nc(-c2cccs2)cs1	.	8	116	4	i	95	97
CCOc1ccc(N2C(=O)C3ON(c4ccccc4)C(c4ccco4)C3C2=O)cc1 (stereo not given)	0.7	6	101	4	-7	95	102
CCOC(=O)Nc1ccc2c(c1)N(C(=O)CN1CCN3CCCC3C1)c1ccccc1CC2 (stereo not given)	0.5	6	105	0	7	119	103
Cc1c(/C=N/NC(=O)c2cc(=O)[nH]c(=O)[nH]2)c2ccccn2c1C(=O)c1ccccc1	-33*	-2	105	6	-1	107	109
Cc1ccc(NC2c3ncccc3C(=O)N2C2CCCCC2)cc1C (stereo not given)	-0.1	2	99	2	-5	81	101
Cc1cc2c(C)nc(N/N=C/c3ccc(F)cc3)nc2o1	-3.6	3	82	3	5	87	72
Clc1ccccc1-c1nc(-c2ccccc2)n[nH]1	1.6	9	100	5	-7	88	109
CC(C[N+](C)(C)C)OC(N)=O (stereo not given)	-1.2	1	82	3	19	94	88
COc1ccc(NC(=O)C2(c3ccc(NC(=O)c4ccc(OC(C)=O)cc4)cc3)CCCC2)cc1	-0.1	3	103	1	1	95	109
CN(C)S(=O)(=O)NCc1ccc2c(c1)OCO2	0.2	0	104	0	1	96	107
COc1cccc(C(=O)COc2ccccc2N2C(=O)C3C4C=CC(C4)C3C2=O)c1 (stereo not given)	1.6	4	104	0	9	113	106
Cc1ccc(Nc2nc(N)nc(CSc3nc(C)cc(C)n3)n2)cc1	0.6	0	96	0	0	94	109
COc1ccc2c(c1)c1nc3ccccc3nc1n2CCCN1C(=O)c2ccccc2C1=O	-42*	7	100	1	22	113	101
COc1ccc(C2C(=O)c3ccccc3C2=O)cc1	-3.1	5	80	13	41	92	93
Cc1nc(-c2cccnc2)sc1C(=O)Nc1ccc(C(F)(F)F)cc1	2.8	-3	90	2	12	121	86
CN(Cc1ccccc1Cl)C(=O)c1cnccc1C(F)(F)F	-2.1	1	84	2	17	102	102
Cc1ccc(SCC(=O)Nc2ccc(S(N)(=O)=O)cc2)cc1	-2.9	3	94	0	5	90	96
CCCCCNCc1ccc(Cl)cc1	1.7	1	95	0	5	104	86
C/C(N)=C(/C#N)C(=O)CSc1nnc(Nc2cccc(C)c2)s1	1.2	9	80	6	11	130	95
CCN1CCN(c2oc(/C=C/c3ccccc3)nc2C#N)CC1	-0.2	3	101	0	13	89	109
Cc1nc(N2CCN(C(=O)c3ccco3)CC2)c2c3c(sc2n1)CCCC3	0.4	-6	88	19	-1	111	89
CCc1ccc(-n2c(O)cnc2Nc2nc(C)cc(C)n2)cc1	0.9	-4	94	0	18	111	101
COc1ccc(-c2nnc(-c3cccnc3)o2)cc1	-0.5	0	97	0	7	107	99
N#C/C(=C\c1ccc(-c2ccc([N+](=O)[O-])cc2)o1)C(=O)Nc1nc(-c2cccs2)cs1	-0.7	-3	102	4	6	72	106
O=C(O)c1cccc(-n2cccc2/C=C2/NC(=O)N(c3cccc(Cl)c3)C2=O)c1	.	2	97	23	3	98	99
CCn1c(COc2ccc(C)cc2)nnc1SCC(=O)NNC(=O)c1ccc(OC)cc1	-4.6	4	98	6	16	100	92
CCC1CCCCN1CC(=O)c1c(C)[nH]c2ccc(OC)cc12 (stereo not given)	0.4	1	96	2	1	106	98
COC(=O)C1=NN(c2ccccc2)C2C(=O)N(c3ccccc3OC)C(=O)C12 (stereo not given)	2.1	-1	100	1	10	92	103
NC1=NC2(CCCC2)n2c(nc3ccccc32)N1	-2.0	9	101	0	23	78	101
Cc1ccc(C)c(NC2=C(Cl)C(=O)OC2OC(C)C)c1 (stereo not given)	-0.5	4	84	0	-13	97	93
COc1ccccc1NC(=O)C1=C(C)Nc2nnnn2C1c1cccc(Br)c1 (stereo not given)	0.0	6	98	2	13	116	95
N#Cc1cnc(SCC(=O)Nc2ccccc2C(F)(F)F)nc1N	4.0	-1	98	0	-7	95	100
COC(=O)CCCCC(=O)OC	.	-1	94	0	7	80	102
NC12CC3CC(CC(C3)C1)C2	5.1	5	97	0	33	102	97
COc1ncnc(NS(=O)(=O)c2ccc(N)cc2)c1OC	.	2	98	2	45	96	101
CCc1nc(NCCCCCO)c2nnn(Cc3ccccc3F)c2n1	-1.3	2	99	5	10	108	.
CC(C)(C)NC(=O)[C@H]1CC[C@H]2[C@@H]3CC[C@H]4NC(=O)C=C[C@]4(C)[C@H]3CC[C@]12C	-3.7	-4	77	4	39	96	72
CCN(CC)S(=O)(=O)c1cc(C(=O)Oc2cccc(-c3cnc4ccccc4n3)c2)ccc1OC	-1.1	-1	.	0	8	93	.
Cc1ccc(-c2nc(CN(C)C3CCOCC3)c(C)o2)s1	-4.2	9	95	1	-11	95	101
Cc1sc2nc(CN3CCOCC3)nc(N3CCOCC3)c2c1C	-2.1	4	98	0	14	105	101
CCc1nc(NCCc2ccccn2)c2nnn(Cc3ccccc3F)c2n1	-2.0	0	89	1	2	101	88
CC1(C)Cc2ccccc2C(/C(C#N)=N/O)=N1	1.4	3	107	0	-5	125	101
CN1C(C(=O)Nc2ccccn2)=C(O)c2sccc2S1(=O)=O	-5.8	1	91	3	15	107	93
O=C(NCc1ccncc1)C1COc2ccccc2O1 (stereo not given)	0.1	-1	88	0	-5	86	97
CCCCNC(=O)C(=O)N/N=C/c1ccc(OCC(=O)Nc2cccc(OC)c2)c(OC)c1	-0.5	0	112	0	-1	90	100
CCCCOC(=O)Cn1c2ccc(OC)cc2c2nc3ccccc3nc21	-28*	4	89	3	-9	110	99
COC(=O)COc1cccc(NC(=O)COc2ccccc2)c1	-0.9	6	98	1	-3	100	97
CCCCc1ccc(NC(=O)C(C)CC)cc1 (stereo not given)	1.4	11	89	1	13	88	95
Cc1sc2nc(CN3CCCCC3)nc(N3CCN(C(=O)c4ccco4)CC3)c2c1C	4.5	-4	108	0	17	99	109
More results.
SMILES	MEX-5 binding	GLD-1 TGE inh	CIT2 TOR yeast	GRK2 aptamer HTS	VLA-4 inh	Yeast superoxide	AGP1-GFP MLPCN
CC(=O)C1=C(C)Nc2ncnn2C1c1cccc(OCc2ccccc2)c1 (stereo not given)	0.6	7	99	0	3	94	100
COc1ccc(NC(=O)c2cc(-c3ccco3)nc3ccccc23)cn1	.	6	102	10	-8	113	98
CC1=CC(C)(C)Nc2ccccc21	0.8	-2&-6	94&107	0&1	8&0	74&91	97&99
O=C1C2ON(c3ccccc3)C(c3ccccn3)C2C(=O)N1c1ccc(Br)cc1 (stereo not given)	3.4	5	96	0	4	108	103
Cc1cc(N/N=C/c2ccccc2[N+](=O)[O-])nc(-n2nc(C)cc2C)n1	-0.2	2	86	0	8	102	86
C/C(=N\NC(=O)c1ccccc1[N+](=O)[O-])c1c(O)cc(C)oc1=O	-2.0	-4	108	0	11	98	88
CCC(=O)Nc1nc2c(OC)ccc(OC)c2s1	-0.8	1	86	2	5	96	86

Assay outcomes deposited in PubChem BioAssay by several laboratories.
